Source: PubChem BioAssay (several laboratories)
VCAM-1 rise = boosters of cytokine-driven VCAM-1 levels – cell-based, plate reader, pooled HUVEC, TNFa stimulus (AID 455); 0.2% of 10,000 active; augmentation, % at 5 µM; HUVEC TNFa-induced VCAM-1 immunofluorescence, plate reader; numbers were filed only for top-ranked candidate wells;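 active means a compound raising TNF-alpha-driven VCAM-1 surface staining, with its hit status upheld on visual or statistical review; inactive means the rest, including hits rejected on review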;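 further: 0% = TNFa with vehicle and 100% = strongest image-checked hit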
Proteasome disasm = blocks ATP-dependent breakdown of the yeast 26S proteasome. inhibition of disassembly, % (concentration not given with the values). anti-FLAG beads, GFP-proteasome disassembly, flow cytometry. 0.2% of 24,000 active;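 active means above 40%; inconclusive means likely self-fluorescent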;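 further: plate controls were ATP control with full disassembly for no effect and ATP-gamma-S intact proteasomes for full effect; higher percent means more bead fluorescence retained so stronger block of disassembly; stock transfer was 100 nL into about 10 µL; wells with too few beads may also be inconclusive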
* marks the source's active call; other numbers are inactive results; i = inactive; ? = inconclusive; nt = no result given. A portion of the library; the hit share may differ from the screen's.

SMILES	VCAM-1 rise	Proteasome disasm
CCc1nc(N)c(C#N)c(-c2ccncc2)c1C	i	0.5
CCCC(=O)NCCc1cc2cc(C)c(C)cc2[nH]c1=O	nt	0.0
O=C1OC2(c3ccccc3)C3CCCC2C13	i	-2.0
CCOC(=O)C(C#N)C(c1cccnc1)c1c(C)[nH][nH]c1=O (configuration not stated)	i	3.0
CCOC(=O)N1CCN(c2c(-c3ccc(C)c(C)c3)c(=O)c2=O)CC1	nt	-0.9
CC1(C)CC(=O)C(CC2=C(O)CC(C)(C)CC2=O)=C(O)C1	i	0.5
Cc1nn(C)c(C)c1S(=O)(=O)N1CCC(C(=O)NCCC2=CCCCC2)CC1	nt	1.2
COc1ccc(-c2nn(-c3ccccc3)cc2/C=N/n2cnnc2)cc1OC	i	0.0
O=c1c2ccccc2n(Cc2ccc(F)cc2)c(=O)n1C1CCCC1	nt	-1.1
COc1ccc(CC(NC(=O)c2ccccc2)C(=O)NCC(=O)O)cc1 (configuration not stated)	nt	0.8
COc1ccc2c(c1)[nH]c1c(=O)n(CCN(C)C)cnc12	i	-2.3
Cc1cc(C)c(NC(=O)CSc2nnc(-c3ccncc3)n2Cc2ccco2)c(C)c1	i	-2.4
CCC(C)NC(=O)C1CCCN(S(=O)(=O)c2ccc(-n3cnnn3)cc2)C1 (configuration not stated)	i	1.7
O=C(O)CCc1ccc(-c2cccs2)n1CCC(=O)O	i	-4.1
NC(=O)CN1CCN(c2ccccc2F)CC1	nt	0.4
Cc1cccc(N2C(=O)SC(N(CC(=O)O)c3cccc(C)c3)C2=O)c1 (configuration not stated)	nt	-2.6
CC(C)(C)C(=O)OCC1OC(n2cnc(C(N)=O)n2)C(O)C1O (configuration not stated)	i	3.5
CCC(=O)N1c2ccc(S(=O)(=O)CCC(=O)NCc3ccc4c(c3)OCO4)cc2CC1C (configuration not stated)	nt	0.4
COC(=O)CCC(NC(=O)c1cc(-c2ccc3c(c2)OCCO3)oc1C)C(=O)OC (configuration not stated)	i	?
COc1ccc(C)cc1NC(=O)C1CCCN(S(=O)(=O)c2cccc3nonc23)C1 (configuration not stated)	nt	-0.2
COc1ccc(-n2c(Cc3cccn3C)nnc2SCC(=O)Nc2ccccc2OC)cc1	nt	2.4
CCn1c(=O)cc(N2CCCCC2)[nH]c1=O	nt	-0.9
O=C(c1cnn(-c2ccccc2)c1-n1cccc1)N1CCN(C2CCCCC2)CC1	nt	-0.1
COc1cc(NC(=O)CN2CC(c3ccccc3)CC2=O)cc(OC)c1 (configuration not stated)	nt	0.1
CC(=O)Nc1ccc(S(=O)(=O)N2CCC(NC(C)=O)(c3cccc(F)c3)CC2)cc1	i	0.3

Ordered by the number under Proteasome disasm (low to high): seven of the compounds above
SMILES	VCAM-1 rise	Proteasome disasm
Cc1cccc(N2C(=O)SC(N(CC(=O)O)c3cccc(C)c3)C2=O)c1 (configuration not stated)	nt	-2.6
O=c1c2ccccc2n(Cc2ccc(F)cc2)c(=O)n1C1CCCC1	nt	-1.1
CCOC(=O)N1CCN(c2c(-c3ccc(C)c(C)c3)c(=O)c2=O)CC1	nt	-0.9
CC(=O)Nc1ccc(S(=O)(=O)N2CCC(NC(C)=O)(c3cccc(F)c3)CC2)cc1	i	0.3
CCC(=O)N1c2ccc(S(=O)(=O)CCC(=O)NCc3ccc4c(c3)OCO4)cc2CC1C (configuration not stated)	nt	0.4
COc1ccc(CC(NC(=O)c2ccccc2)C(=O)NCC(=O)O)cc1 (configuration not stated)	nt	0.8
CCOC(=O)C(C#N)C(c1cccnc1)c1c(C)[nH][nH]c1=O (configuration not stated)	i	3.0

Remaining list, next part.
SMILES	VCAM-1 rise	Proteasome disasm
Cc1nc2nc(SCC(=O)NCc3ccco3)nn2c(C)c1Cc1c(F)cccc1Cl	nt	0.3
Cc1c(C#N)c(N)c(C(=O)c2ccccc2)n1Cc1ccccc1	i	-1.0
N#Cc1c(/N=C/c2cccs2)sc2c1CCCCC2	i	0.3
O=C(NCc1ccccn1)C1CCN(S(=O)(=O)N2CCCC2)CC1	nt	0.7
CC(C)NC(=O)c1cc2c(-c3ccc(Cl)cc3)nn(C)c2s1	nt	0.7
CCOC(=O)N1CCN(C(=O)c2oc3ccc(S(=O)(=O)N4CCOCC4)cc3c2C)CC1	nt	-1.5
CCOc1ccccc1N1C(=O)CC(Sc2ncccc2C(=O)O)C1=O (configuration not stated)	i	-2.2
COCCSc1nnc(NC(=O)Cc2ccccc2OC)s1	i	-0.2
COc1ccc(S(=O)(=O)NCC(c2cccnc2)N2CCN(c3ccc(F)cc3)CC2)cc1C (configuration not stated)	i	1.9
CCOC(=O)N1CCN(C(=O)c2ccc3c(SCC(=O)O)c4c(nc3c2)CCCC4)CC1	i	-0.8
N#C/C(=C(/O)COC(=O)CCC1CCCCC1)c1nc2ccccc2[nH]1	i	4.6
CCOc1ccccc1N1CCN(c2nc(N)c(C#N)c(CC#N)c2C#N)CC1	i	19
OC(CCN1CCCC1)(c1ccccc1)C1CCCCC1 (configuration not stated)	i	-0.4
Cc1ccccc1CN1CCN(CC(=O)NCCCN2CCN(c3ccc(F)cc3)CC2)C1=O	nt	1.8
O=C(CCCn1c(SCC(=O)NCC2CCCO2)nc2ccccc2c1=O)NCC1CCCO1 (configuration not stated)	nt	-1.4
COc1ccc(OCCSc2ncnc3nc[nH]c23)cc1	nt	-1.8
CCN(CCNC(=O)C1CCCN(Cc2nc(-c3ccc(OC)cc3)oc2C)C1)c1ccccc1 (configuration not stated)	nt	5.1
Cc1sc2nc(CN3CCN(S(=O)(=O)c4cccc5nonc45)CC3)[nH]c(=O)c2c1C	i	-0.7
O=C1CS/C(=N\C(=O)N2c3ccccc3Sc3ccccc32)N1	i	5.0
Cc1onc(-c2ccccc2Cl)c1C(=O)Nc1cccc(-c2nc3ncccn3c2C)c1	nt	-3.7
Cc1nc(N(C)C)c2sc(=S)n(C)c2n1	nt	0.1
c1ccc2c(-c3nc(C4CCCCC4)no3)cc(-c3ccncc3)nc2c1	i	2.5
COc1ccc(-c2nc(CS(=O)(=O)CC(=O)NCCc3cc(OC)ccc3OC)c(C)o2)cc1	nt	0.7
CS(=O)(=O)c1ccc2nc(NC(=O)Oc3ccccc3)sc2c1	nt	-1.1
COc1ccc(-c2cn3cccnc3n2)cc1NC(=O)C1CC1	nt	4.2

(further entries)
SMILES	VCAM-1 rise	Proteasome disasm
COc1ccccc1N1CCN(c2nc(-c3ccccc3)cc(C(F)(F)F)n2)CC1	nt	0.2
COc1ccc(CCNS(=O)(=O)c2ccc(C(=O)NCc3ccco3)cc2)cc1OC	i	3.2
O=C(NCc1cccs1)c1cnc2ccccn2c1=O	nt	-6.8
CCOC(=O)c1ccc(NC(=O)N2CCN(Cc3cccc(F)c3)CC2)cc1	i	-0.4
CCN1C(=O)CSc2ccc(C(=O)NC3CCCCC3)cc21	nt	0.8
CCOc1ccc2nc(NC(=O)c3ccc(S(=O)(=O)N4CCOCC4)cc3)sc2c1	nt	-1.0
Cc1ccc2[nH]c(=O)c(CN(Cc3ccc4c(c3)OCO4)Cc3nnnn3Cc3ccco3)cc2c1	i	2.2
CCOc1ncccc1C(=O)Nc1ccc(Cl)cc1	i	-0.2
CCOc1ccccc1Nc1nnc(C)c(=O)[nH]1	nt	1.0
COc1cc(OC)c(C#N)c(S(=O)Cc2ccccc2)c1 (configuration not stated)	nt	-0.8
O=C(C1CCCN(Cc2cccnc2)C1)N1CCCCC1 (configuration not stated)	nt	1.1
Fc1cc(F)c2nc(N3CCCCC3)sc2c1	nt	-2.3
Cn1c(/C(C#N)=C/Nc2ccccn2)nc2ccccc21	i	3.1
COc1ccc(CNC(=O)c2cc(-c3ccccc3OC)on2)cc1	nt	-0.5
O=C(NCCN1CCOCC1)c1ccc(CS(=O)(=O)c2c(Cl)cccc2Cl)o1	nt	-2.1
Cc1cc(=O)[nH]c(SCC(=O)NCc2ccco2)n1	i	5.0
CCOc1ccc(C(CC(=O)O)NC(=O)COc2ccccc2)cc1 (configuration not stated)	nt	-0.8
CCN(CC)S(=O)(=O)c1ccc(NC2c3ccccc3C(=O)N2Cc2ccc3c(c2)OCO3)cc1 (configuration not stated)	nt	-1.1
O=C1c2ccccc2C(=O)N1c1cccc(-c2nc3ccccc3o2)c1	i	3.1
COC(=O)CN1C(=O)C(O)(CC(=O)c2ccc(C)cc2)c2cc(Br)ccc21 (configuration not stated)	i	-1.1
Cc1cc(NC(=O)C2CC(c3ccc(F)cc3)=NO2)n(-c2ccccc2)n1 (configuration not stated)	nt	-0.8
CCN(CC(=O)NC1CCS(=O)(=O)C1)C(=O)C(c1ccccc1)c1ccccc1 (configuration not stated)	i	-0.2
CCN1CCN(C(=O)c2cc3c(-c4ccc(Cl)cc4)nn(C)c3s2)CC1	nt	0.7
O=C(CC(C(=O)N1CCc2ccccc21)n1ccnc1)NCc1cccnc1 (configuration not stated)	i	1.4
COc1cc(NC(=O)c2csc3c2CCCC3)ncn1	nt	-0.7

New compounds follow.
SMILES	VCAM-1 rise	Proteasome disasm
CS(=O)(=O)N1CCN(c2ccccc2NC(=O)c2ccc(-c3ccc(Cl)cc3Cl)o2)CC1	i	-2.2
CCc1ccc(NC(=O)CSc2nc3c(c(=O)n(C)c(=O)n3C)n2C)cc1	nt	-1.5
Cc1ccc2cc(CN(Cc3ccc(F)cc3)Cc3nnnn3C3CCCC3)c(=O)[nH]c2c1	i	9.5
Cc1ccc(C(=O)Nc2c(C(=O)N3CCOCC3)cnn2-c2ccccc2)cc1	i	3.8
COc1cccc(NC(=O)N[C@@H](Cc2ccccc2)C(=O)O)c1	i	-1.4
CCCn1c(=N)n(CCOc2ccc(OC)cc2)c2ccccc21	i	1.4
COc1ccc(N2C(N)=C(C#N)C(c3cccnc3)C3=C2CC(C)(C)CC3=O)cc1 (configuration not stated)	i	0.7
CCOC(=O)N1CCN(C(=O)c2ccc3c(c2)sc2nc(-c4ccc(OC)cc4)cn23)CC1	nt	0.9
Cc1ccc(Cn2c(CN3CCOCC3)nc3c2c(=O)[nH]c(=O)n3C)cc1	nt	0.1
COc1ccc(-c2nc(CS(=O)CC(=O)NCC3CCCO3)c(C)o2)cc1 (configuration not stated)	nt	0.1
O=C(Nc1cccc(F)c1)c1cc(S(=O)(=O)N2CCC(C(=O)O)CC2)ccc1F	nt	2.9
COc1ccc(Br)cc1CNC(=O)C1CCCN(c2nc3ccccc3o2)C1 (configuration not stated)	nt	0.1
Cn1c(=O)c2sccc2n2c(CCCC(=O)NCc3ccc4c(c3)OCO4)nnc12	nt	-1.8
CCOC(=O)CSc1nc2ccccc2c(=O)n1CC1CCC(C(=O)NCc2ccco2)CC1 (configuration not stated)	nt	0.0
N#Cc1ccc(CSc2nnc(-c3cccs3)n2-c2ccccc2)cc1	i	1.0
CCOc1cc(C2C(C(=O)c3ccccc3)=C(C(=O)OC)Nc3nnnn32)ccc1O (configuration not stated)	i	-3.1
CCCCC[C@H](O)/C=C/[C@H]1C=CC(=O)[C@@H]1C/C=C\CCCC(=O)O	i	-1.1
COc1ccccc1NC(=O)c1cnc2n(c1=O)CCS2	nt	1.2
CCOC(=O)N1CCC(N2C(=O)c3ccc(C(=O)O)cc3C2=O)CC1	nt	0.7
Nc1nc2n(n1)C(c1cccc(Br)c1)CC(c1ccccc1)N2 (configuration not stated)	i	0.3
COc1ccc(-n2ncc3c(N4CCN(c5cccc(C)c5C)CC4)ncnc32)cc1	i	0.6
CCOC(=O)C1CCCN(C(=O)Cc2ccc(OC)c(OC)c2)C1 (configuration not stated)	i	2.4
Cc1cccc2nc(Cn3c(=O)n(CCCC(=O)NCc4ccco4)c(=O)c4ccccc43)cc(=O)n12	nt	0.1
COc1cccc(CNC(=O)c2cc3oc4ccccc4c3n2C)c1OC	nt	2.6
COc1ccc(C2(CNC(C)=O)CCOCC2)cc1OC	nt	-1.1

Reformatted with values under each structure: part of the list above.
Results follow in this order: VCAM-1 rise, Proteasome disasm
- COc1ccc(Br)cc1CNC(=O)C1CCCN(c2nc3ccccc3o2)C1 (configuration not stated)
 : nt, 0.1
- Cc1ccc2cc(CN(Cc3ccc(F)cc3)Cc3nnnn3C3CCCC3)c(=O)[nH]c2c1
 : i, 9.5

Record cards, as listed above.
Results for CCOc1ccccc1Nc1nnc(C)c(=O)[nH]1 = VCAM-1 rise: nt; Proteasome disasm: 1.0
Results for COc1ccc(CNC(=O)c2cc(-c3ccccc3OC)on2)cc1 = VCAM-1 rise: nt; Proteasome disasm: -0.5

Continuation.
SMILES	VCAM-1 rise	Proteasome disasm
C/C(=C\C(=O)O)CC(=O)O	i	1.3
COC(=O)c1ccc(C2C(C(=O)Nc3ccc(C)cc3C)=C(C)Nc3ncnn32)cc1 (configuration not stated)	nt	0.3
COc1ccc(CCNC(=O)c2cc(-c3ccccc3OC)on2)cc1OC	nt	0.0
O=C(CSc1nc2c(c(=O)n1-c1ccc(Cl)cc1)SCC2)N1CCCC1	nt	-0.2
CCOc1ccc(NC(=O)NC2CCOC(C)(C)C2)cc1 (configuration not stated)	nt	0.4
CN(CC(=O)Nc1ccc(Cl)cc1)S(=O)(=O)c1cccc2cccnc12	nt	1.0
COc1cccc(S(=O)(=O)Nc2ccc3sc(C)nc3c2)c1	nt	2.4
Cc1cc(C)n(-c2cc(N3CCOCC3)nc(-c3ccccc3)n2)n1	i	-0.2
CCN(CC)CCCNC(=O)c1cc(-c2ccc(O)cc2)on1	nt	1.8
COCCCNC(=O)c1cc2c(-c3ccc(Cl)cc3)nn(C)c2s1	nt	0.2
O=C(Nc1ccc2c(c1)OCO2)N1CCN(c2ncccn2)CC1	i	1.2
COc1ccccc1NC(=O)c1nnn(CC(=O)Nc2ccccc2)c1N	i	0.6
O=C(c1ccc2c(=O)n(CC3CCCO3)c(=S)[nH]c2c1)N1CCN(c2ccccc2)CC1 (configuration not stated)	nt	0.5
COc1cccc(-n2nnc3c(=O)n(CC(=O)N4CCCCC4)cnc32)c1	nt	0.5
